PINK1 expr mod: PINK1 expression modulation; PINK1 immunofluorescence, high-content cytometry, 24 h; Potency, µM (highest dose often 76.6 µM), for inactives: at the top dose activation (PINK1 increase), most hits filed as activators; 0.2% of 410,000 active; active = well fitted activation curve with a large enough effect; inconclusive = small, poorly fitted or top-dose-only effect; inactive = flat fitted curve, though single readings scatter; cell line not stated here;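 note: % of control where 0% means no effect; nearly all actives have a fitted effect of over 65% in size; a mitochondrial uncoupler was the plate control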
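Readout is PINK1 immunofluorescence, quantified alongside mitochondrial, cell and nuclear markers by laser-scanning microplate cytometry. Cells from a stable line were exposed to compound titrations (5 concentrations) for 24 hours, with CCCP controls.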
Numbers without * were called inactive; ? = inconclusive; & = joins results of further samples. Potency is the fitted concentration of half-maximal effect. These rows are one share of the data; the hit share may differ from the screen's.

SMILES | PINK1 expr mod
COc1ccc(-n2c(=O)c(CCc3ccccc3)nc3cnc(OC)nc32)cc1 | 2.2%
COc1cccc(CN2CCC3(CC2)c2ccccc2[C@@H](NC(=O)c2ccccc2OC)[C@@H]3O)c1 | 2.0%
CCN(Cc1ccncc1)Cc1ccc2c(c1)CN(C(=O)c1ccc(C)cc1)CCO2 | -0.3%
COc1cccc(Cn2c(=O)cnc3cnc(OCc4ccccc4)nc32)c1 | 0.1%
COc1ccc2c(c1)CCc1cnc(-n3ncc(C(=O)NCc4cccnc4)c3C3CC3)nc1-2 | 0.6%
CS(=O)(=O)Nc1cccc(-c2cncnc2Nc2ccc(F)cc2)c1 | -0.2%
CCC1C(=O)NCCN1Cc1ccc2c(c1)CN(Cc1cc(OC)ccc1OC)CCO2 (stereo not drawn) | -0.1%
Cc1ncc2c(c1CNC(=O)c1ccc3c(c1)OCO3)CCN(C(=O)/C=C/c1ccccc1Cl)C2 | -1.3%
COc1ccccc1C1CN(CCNC(=O)C2=CCCC2)Cc2ccccc2O1 (stereo not drawn) | 2.6%
O=C(c1cccc(F)c1)N1CCC2(CCCN(Cc3ccncc3)C2)CC1 | -0.9%
COc1ccccc1CNc1nc(-c2cccnc2)nc2ccccc12 | 3.6%
CCn1c(-c2cccnc2)nc2cc(NC(=O)COC)cc(C(=O)N3CCOc4ccccc4C3)c21 | 0.5%
O=c1c(-c2ccccc2)nc2cnc(N3CCOCC3)nc2n1CCc1ccccc1 | 0.5%
COc1cccc(Nc2ncc3nc(-c4ccc(F)cc4)c(=O)n(CCC#N)c3n2)c1 | ?
c1nc(NC2CCNCC2)c2cc(-c3ccc4c(c3)OCO4)ccc2n1 | -0.6%
COc1ccccc1C1CN(Cc2cn(C)nc2C)Cc2ccccc2O1 (stereo not drawn) | 0.1%
O=C1c2ccccc2NC(c2ccc(-c3cccc(F)c3)o2)N1O (stereo not drawn) | 2.9%
CN(C)C(=O)c1ccc(-c2cc(N(C)Cc3ccco3)ncn2)cc1 | 0.3%
O=C(Nc1ncnc2c1C(c1ccccc1)c1c(ccc3ccccc13)O2)c1ccccc1 (stereo not drawn) | -0.7%
O=C(NCc1nnc2n1CCN(Cc1ccccc1C(F)(F)F)CC2)c1ccncc1 | -0.5%

Given with the structure last: entries from further up
PINK1 expr mod | canonical_smiles
-0.7% | O=C(Nc1ncnc2c1C(c1ccccc1)c1c(ccc3ccccc13)O2)c1ccccc1 (stereo not drawn)
-0.5% | O=C(NCc1nnc2n1CCN(Cc1ccccc1C(F)(F)F)CC2)c1ccncc1

Following part:
SMILES | PINK1 expr mod
Cc1noc(C)c1-c1nccc(NCc2ccccc2)n1 | 0.6%
COc1ccccc1-c1cncnc1-n1ccnc1 | -0.4%
Cn1c(=O)c(CCc2ccccc2)nc2cnc(N3CCNCC3)nc21 | 2.3%
Clc1ccccc1-c1cc(NCc2ccccc2)ncn1 | 0.8%
COc1cccc(-c2cc(N(C)Cc3ccco3)ncn2)c1 | 4.9%
CN(C)C(=O)c1ccc(-c2ccc3ncnc(NCc4cccs4)c3c2)cc1 | 1.2%
CN(C)c1ccc(-c2cc(O)c3ncccc3c2)cc1 | 5.8%
CC(=O)N1CCN(c2ccc(NCc3ccc(-c4ccc(Br)cc4)o3)cc2)CC1 | ?
O=C(c1cnccn1)N1CCC[C@@]2(CCN(Cc3ccncc3)C2)C1 | -1.2%
COc1ccccc1C(=O)N[C@@H]1c2ccccc2C2(CCN(Cc3c(O)cccc3OC)CC2)[C@H]1O | 0.3%
O=C(c1ccc(C(F)(F)F)cc1)N(Cc1cc2ccc(F)cc2nc1N1CCOCC1)C1CC1 | -0.3%
Cc1ccc(C(=O)NCCc2nnc3n2CCN(C(=O)c2ccnc(Cl)c2)CC3)cc1 | -0.6%
COc1ccccc1CN1CCOc2ccc(CN3CCC(Oc4cccnc4)CC3)cc2C1 | -0.6%
Cc1cnc(-n2ncc(C(=O)N(C)C3CCOC3)c2C)nc1-c1ccc(F)cc1 (stereo not drawn) | -0.6%
O=C(c1cccnc1)C1CCCN(Cc2ccc3c(c2)CN(C(=O)c2cccc(Cl)c2)CCO3)C1 (stereo not drawn) | 2.2%
Cc1ncc2c(c1CNC(=O)c1cncs1)CCN(C(=O)c1ccsc1)C2 | -0.1%
COCCNc1cc(-c2ccccc2C)ncn1 | -0.2%
CC(=O)N1CCC2(CCCN(c3ccc(-c4ccccc4)cc3)C2)CC1 | 0.8%
CCNc1ncc2nc(CCc3ccccc3)c(=O)n(C3CC3)c2n1 | 0.8%
CCOc1ccccc1CN1CCCC(c2nc(C)ncc2-c2ccc(F)cc2)C1 (stereo not drawn) | 0.5%

Sorted by formula weight (largest number first): some entries from above.
SMILES | PINK1 expr mod
O=C(c1cccnc1)C1CCCN(Cc2ccc3c(c2)CN(C(=O)c2cccc(Cl)c2)CCO3)C1 (stereo not drawn) | 2.2%
COc1ccccc1C(=O)N[C@@H]1c2ccccc2C2(CCN(Cc3c(O)cccc3OC)CC2)[C@H]1O | 0.3%
CN(C)C(=O)c1ccc(-c2ccc3ncnc(NCc4cccs4)c3c2)cc1 | 1.2%
CCNc1ncc2nc(CCc3ccccc3)c(=O)n(C3CC3)c2n1 | 0.8%
CN(C)c1ccc(-c2cc(O)c3ncccc3c2)cc1 | 5.8%
COc1ccccc1-c1cncnc1-n1ccnc1 | -0.4%

(more compounds)
SMILES | PINK1 expr mod
Cn1c(=O)c(-c2ccccc2)nc2cnc(N3CCNCC3)nc21 | -0.7%
O=C(c1cnccn1)N1CCC2(CC1)CN(C(c1ccccc1)c1ccccc1)C2 | 0.3%
COCC(=O)N1CCC2(CC1)CCN(c1cccc(-c3ccccc3)c1)CC2 | 0.4%
O=C(c1csnn1)N1CCC2(CCN(Cc3ccccc3)CC2)CC1 | 0.7%
COc1ccc(-n2c(=O)cnc3cnc(Nc4ccccc4)nc32)cc1 | ?
O=c1c(-c2ccc(F)cc2)nc2cncnc2n1Cc1ccccc1 | 4.7%
O=C(c1cc(C(F)(F)F)cc(C(F)(F)F)c1)N1CCC2(CCN(Cc3ccncc3)CC2)CC1 | -0.6%
COc1cc(OC)c2nc(-c3cc4c(c(OC)c3)OCCN(C(=O)CC3NC(=O)c5ccccc53)C4)cc(C)c2c1 (stereo not drawn) | 1.2%
COc1ccc2[nH]cc(CCNc3cc(-c4ccoc4)ncn3)c2c1 | -0.6%
O=C(c1cnccn1)N1CCC2(CC1)CN(Cc1ccccc1)C2 | -0.2%
Cc1cccc(CNC(=O)c2cnn(-c3nccc(-c4cccs4)n3)c2C(C)C)n1 | -0.6%
COc1cccc(-c2ccnc(-n3ncc(C(=O)NCC4(N5CCCCC5)CCCC4)c3C)n2)c1 | 0.7%
CCC1CN(CC(=O)NCc2ccc3c(c2)OCO3)Cc2ccc(Cl)cc2O1 (stereo not drawn) | 1.2%
COc1cccc(Nc2ncc3nc(C)c(=O)n(Cc4cccs4)c3n2)c1 | ?
Cn1cccc1C(=O)N1CCC[C@@]2(CCN(C(c3ccccc3)c3ccccc3)C2)C1 | 0.2%
Cc1ncc2c(c1CNS(=O)(=O)N(C)C)CCN(C(=O)c1[nH]c3ccc(Cl)cc3c1C)C2 | 1.4%
CCNc1ncc2nc(-c3ccc(Cl)cc3)c(=O)n(CCC#N)c2n1 | 3.1%
CC(C)NC(=O)c1cn(C2CCCN(C(=O)c3cc4ccccc4oc3=O)C2)nn1 (stereo not drawn) | 2.1%
Cc1cccc(CNc2ncnc3ccc(-c4ccc(C(=O)N(C)C)cc4)cc23)c1 | 2.6%
O=C(OC1Cc2c(O)cc(O)cc2OC1c1cc(O)c(O)c(O)c1-c1c(C2Oc3cc(O)cc(O)c3CC2O)cc(O)c(O)c1O)c1cc(O)c(O)c(O)c1 (stereo not drawn) | -1.2%

Arranged by value in PINK1 expr mod (largest number first): three of the compounds above
| smiles | PINK1 expr mod |
| --- | --- |
| CC(C)NC(=O)c1cn(C2CCCN(C(=O)c3cc4ccccc4oc3=O)C2)nn1 (stereo not drawn) | 2.1% |
| CCn1c(-c2cccnc2)nc2cc(NC(=O)COC)cc(C(=O)N3CCOc4ccccc4C3)c21 | 0.5% |
| COc1ccc2[nH]cc(CCNc3cc(-c4ccoc4)ncn3)c2c1 | -0.6% |

The results go on:
SMILES | PINK1 expr mod
CS(=O)(=O)Nc1cccc(-c2nc(NCc3ccccc3)c3ccccc3n2)c1 | 1.5%
Cc1cc(=O)c(C(=O)NCCc2ccccn2)c2n1-c1ccccc1SC(c1cccs1)C2 (stereo not drawn) | -0.8%
CN1CCN(c2ncnc3ccc(-c4ccccc4C#N)cc23)CC1 | 2.5%
O=C(COC(=O)CNC(=O)C1CCCCC1)Nc1ccccc1Cl | 0.8%
Cn1c(=O)c(-c2cc(F)cc(F)c2)nc2cnc(Oc3cccc(Cl)c3)nc21 | 1.3%
COc1ccccc1C1CN(Cc2cccc3nccnc23)Cc2ccccc2O1 (stereo not drawn) | -0.1%
COc1ccccc1CN1CCOc2ccc(C(C)(O)COc3ccccc3)cc2C1 (stereo not drawn) | -1.3%
Cc1ccc(-c2csc(N3CCC(C(N)=O)CC3)n2)cc1 | -1.2%
CN(C)CC(C)(C)CNC(=O)c1cnn(-c2ncc3c(n2)-c2ccccc2CC3)c1-c1ccco1 | -0.3%
O=C(c1cccc(F)c1)N1CCC2(CCCN(c3ccccn3)C2)CC1 | -0.5%
CCCS(=O)(=O)NCc1c(C)ncc2c1CCN(C(=O)c1c(F)ccc(F)c1F)C2 | -0.2%
N#CCCn1nc(Cc2cccc3ccccc23)c(C#N)c1N | -0.4%
O=S(=O)(NCCCCCNS(=O)(=O)c1c(F)cccc1F)c1ccc2c(c1)OCCO2 | 0.9%
Cc1ncc2c(c1CNC(=O)c1cncs1)CCN(C(=O)c1ccc(C(C)(C)C)cc1)C2 | -0.6%
Cc1ccc2nc(SCC(=O)N3CCOc4ccc(CN5C[C@@H](C)O[C@@H](C)C5)cc4C3)[nH]c2c1 | -1.0%
COc1ccccc1C(=O)Nc1cccc(N2CCC(NCc3cnn(-c4ccccc4)n3)CC2)c1 | 1.7%
Cc1noc(C)c1-c1cncnc1Nc1ccccc1 | -0.3%
N#Cc1cccc(-c2cc(NCc3cccs3)ncn2)c1 | 0.0%
CC(O)(COc1ccccc1)c1ccc2c(c1)CN(Cc1ccc3nsnc3c1)CCO2 (stereo not drawn) | -0.3%
CC(C)C(NS(C)(=O)=O)c1nnc2n1CCN(Cc1ccc(C#CC(C)(C)O)cc1)CC2 (stereo not drawn) | 1.1%

Remaining list, next part.
| Molecule | PINK1 expr mod |
| --- | --- |
| COc1ccc(O)c(CN2CCOc3c(cc(-c4cccc(OC)n4)cc3OC)C2)c1 | 1.1% |
| COc1cc2c(cc1OC)C1C(=O)c3c(cc4c(c3O)C=CC(C)(C)O4)OC1CO2 (stereo not drawn) | 18% |
| Oc1cc(-c2ccc(N3CCCCC3)nc2)cc2cccnc12 | 13µM* |
| COc1ccccc1CNc1cc(-c2ccoc2)ncn1 | -0.5% |
| COCCn1c(=O)c(-c2ccccc2)nc2cnc(N3CCOCC3)nc21 | -0.9% |
| COCCn1c(=O)c(-c2cccc(C#N)c2)nc2cnc(Oc3ccccc3)nc21 | -0.1% |
| CN(C)C(=O)c1ccc(-c2nc(NCc3ccccc3)c3ccccc3n2)cc1 | 0.1% |
| O=C(Nc1ccccc1)N1CCCC2(CCN(C(=O)c3cnccn3)CC2)C1 | 0.9% |
| COCC(=O)Nc1cc(C(=O)N2CCN(C3CCCC3)C(=O)C2)c2c(c1)nc(-c1ccncc1)n2C | -1.1% |
| Cc1cccc(CNc2ncnc3ccc(-c4ccoc4)cc23)c1 | -1.4%&0.9% |
| O=C(c1cnccn1)N1CCC[C@@]2(CCN(c3ccccc3)C2)C1 | -0.4% |
| O=C(c1ccncc1)N1CCC[C@@]2(CCN(c3ncccn3)C2)C1 | 1.0% |
| O=C(c1ccncc1)N1CCC2(CC1)CN(c1cccc(-c3ccccc3)c1)C2 | 0.9% |
| COc1cc(O)c2c(c1)C(=O)c1cc(C)cc(O)c1C2=O | -0.3% |
| CC(=O)c1cccc(-c2csc3ncnc(Sc4nnnn4C)c23)c1 | 2.5% |
| COc1cc(CN2CCCC(n3cc(C(=O)N4CCCCC4)nn3)C2)cc(OC)c1 (stereo not drawn) | -0.8% |
| COc1ccc(CNc2nc(-c3ccc(C(=O)N(C)C)cc3)nc3ccccc23)c(OC)c1 | 0.8% |
| COc1ccccc1C(=O)N(Cc1cc2cccc(C)c2nc1N1CCC(O)CC1)C1CC1 | 0.2% |
| COc1cccc(-c2ccc3ncnc(NC4CCNCC4)c3c2)c1 | -1.8% |
| CS(=O)(=O)c1ccc(C(=O)OCC(=O)N2CCOCC2)cc1[N+](=O)[O-] | 7.6% |
| Cc1noc(C)c1CC(=O)NCC1Cc2cc(-c3cccc(OC(F)(F)F)c3)ccc2O1 (stereo not drawn) | -0.2% |
| CNc1nc(-c2ccc(N(C)C)cc2)nc2ccccc12 | 0.2% |
| O=C(Nc1ccccc1)N1CC2(CCN(C(=O)c3cccc(F)c3)CC2)C1 | -0.7% |
| COC1=CC(=O)C(C(=O)c2ccccc2)=CC1=O | -0.4% |
| CN(C)c1ncc2nc(-c3cccc(C#N)c3)c(=O)n(C[C@H]3CCCO3)c2n1 | 1.9% |

(list continues)
| Molecule | PINK1 expr mod |
| --- | --- |
| O=C(c1cccc(F)c1)N1CCC2(CC1)CN(C(c1ccccc1)c1ccccc1)C2 | -0.1% |
| CN(C)CCCNc1cc(O)c2ncccc2c1 | 0.7% |
| COC(=O)N1CCC[C@@]2(CCN(Cc3cc(C(F)(F)F)cc(C(F)(F)F)c3)C2)C1 | -0.1% |
| COc1ccccc1CNc1cc(-c2cccc(C#N)c2)ncn1 | 5.5% |
| Cc1cnc(-n2ncc(C(=O)NCCN3CCOCC3)c2C(C)C)nc1-c1ccc(F)cc1 | -0.6% |
| CC(C)CN1CC2(CCN(S(=O)(=O)c3ccccc3)CC2)C1 | -0.9% |
| COc1ccc2[nH]cc(CCNc3cc(-c4ccccc4OC)ncn3)c2c1 | 2.2% |

Bioassay records as filed in PubChem.
